# Bioassay records from PubChem BioAssay.
# Sfp inh = blocks B. subtilis Sfp PPTase activity; Q9F4F7; Biochemical Sfp PPTase activity, qHTS; Potency, µM, for inactives: max response, negative = inhibition, actives largely listed as inhibitors; 310,000 compounds, 3.5% hits; AID 1490; active = well fitted inhibition curve with a large enough effect; inconclusive = small, poorly fitted or top-dose-only effect, or another doubt; inactive = no such curve, though single readings can be large or run the other way;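 also: the enzyme is Sfp with the accession as filed and its product quenches rhodamine fluorescence; potency is read from the fitted curve at half-maximal effect; 0% = enzyme reaction without inhibitor and -100% = no enzyme wells; top concentration of the series not given in the record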
#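 Compounds were incubated with enzyme (final 15 nM) for 15 min at room temperature before substrate addition started the reaction. Fluorescence at 525 nm excitation, 598 nm emission was recorded immediately and after 30 minutes.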
# TRPML1 blocker = blocks the human TRPML1 channel. Q9GZU1. TRPML1-inducible cells, Ca2+ dye fluorescence, FDSS; hits give low values; inhibition of EC80 agonist-evoked calcium signal. activity change, negative = inhibition, % (test concentration not listed). 390,000 compounds, 0.02% hits. AID 624415; in the data active means activity change below about -50%; inconclusive means about -30% to -50%; inactive means above about -30%;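 also: stimulus is agonist 54-4 at its EC80 concentration; % is scaled to controls: 0 for no effect and ±100 for the full control effect; compound concentration not given in the record; the text of the record puts the active cut at -80%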
# Target sequence (Q9GZU1 whole entry, looked up): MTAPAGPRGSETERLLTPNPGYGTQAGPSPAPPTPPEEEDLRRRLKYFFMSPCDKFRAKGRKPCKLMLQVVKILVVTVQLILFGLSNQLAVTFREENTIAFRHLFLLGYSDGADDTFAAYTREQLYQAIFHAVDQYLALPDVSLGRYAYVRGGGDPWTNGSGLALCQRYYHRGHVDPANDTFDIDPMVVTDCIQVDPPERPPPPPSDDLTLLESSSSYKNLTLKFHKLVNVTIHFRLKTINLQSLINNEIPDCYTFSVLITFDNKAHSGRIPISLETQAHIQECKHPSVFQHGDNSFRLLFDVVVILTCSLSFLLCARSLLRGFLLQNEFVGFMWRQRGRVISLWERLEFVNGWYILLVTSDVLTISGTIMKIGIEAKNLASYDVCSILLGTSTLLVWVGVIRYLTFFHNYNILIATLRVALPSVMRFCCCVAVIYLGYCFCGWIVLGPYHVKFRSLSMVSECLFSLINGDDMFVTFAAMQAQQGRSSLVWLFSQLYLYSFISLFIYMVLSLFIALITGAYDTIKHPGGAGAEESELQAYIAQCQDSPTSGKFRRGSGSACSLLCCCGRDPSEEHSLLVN
#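 Tet-induced TRPML1-DL cells loaded with Ca8 no-wash calcium dye were read kinetically on FDSS. Compound addition was followed by EC80 agonist 54-4 (4 uM final); inhibition was read over 110 s.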
# Menin-MLL FL inh = inhibitors of human menin-MLL interaction, wild-type MLL peptide. Fluorescence polarization, fluorescein-MLL peptide displacement from menin. FP activity change, % at 61.4 µM. 290,000 tested, under 10 active. AID 1766; inconclusive = falling polarisation curve, or a change in total fluorescence; inactive = total fluorescence flat and polarisation flat or rising; no compound was filed as active; the % refers to the polarisation; negative = inhibition;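 also: % of control where 0% means no effect; inhibitors lower the polarisation; unlabelled MLL peptide was the positive control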
# TRPV1 PAM = potentiators of human vanilloid receptor 1 (TRPV1); TRPV1-expressing cells, Fluo-8 calcium influx, capsaicin EC20 potentiation; host cell line not named in the record; control for the full effect not named in the record; AID 540277; 320,000 compounds, 0.02% hits; Q8NER1; potentiation, % at 8.33 µM; active means potentiation above 80%; inconclusive means 30% to 80%; inactive means below 30%; also: 0% is about no effect
#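 TRPV1-expressing cells were cultured overnight at 35.5C and loaded with Fluo-8 calcium dye for 40 to 90 min at room temperature. After a 10 s baseline, compound was added and calcium influx was read kinetically for 3 min (ex 480/em 520 nm).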
# ClpP mod = qHTS Assay for Activators of ClpP. ATP-dependent Clp protease proteolytic subunit (Bacillus subtilis (strain 168)), P80244. purified B. subtilis ClpP, FRET peptide cleavage, 20 min. Potency, µM (series often up to 57.5 µM), inactives show top-dose activity change, negative = active. 340,000 compounds, 1.9% hits. AID 651965, 2013; active = well fitted falling curve with a large enough effect; inconclusive = small, poorly fitted or top-dose-only effect; inactive = no such curve, though single readings can be large or run the other way; also: potency is read from the fitted curve at half-maximal effect; the source files actives as falling curves though it sought activators and does not explain the sign; nearly all actives have a fitted effect of over 65% in size; many hits overshoot -100%
# Target sequence (P80244 whole entry, looked up): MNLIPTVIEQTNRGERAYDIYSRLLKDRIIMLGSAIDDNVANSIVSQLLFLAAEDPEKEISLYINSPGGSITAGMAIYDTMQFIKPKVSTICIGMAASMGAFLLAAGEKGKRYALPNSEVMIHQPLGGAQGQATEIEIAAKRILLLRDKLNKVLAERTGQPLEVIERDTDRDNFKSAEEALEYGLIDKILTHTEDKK
#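 Buffer: 100 mM Tris/HCl pH8, 100 mM KCl, 0.05% low protease BSA, 2.5% glycerol, 0.01% Tween-20. ClpP 10 microg/mL final; 20 min RT; delta FRET normalized to ADEP and DMSO controls.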
# gsp antag = antagonists of gsp mutant (McCune-Albright syndrome) | AID 624288 | 340,000 compounds, 0.4% hits | gsp-mutant cells, cAMP HTRF, 30 min; control for the full effect not named in the record | Potency, µM (titrated, usually from 76.9 µM), without a hit: at the top dose activity change, negative = inhibition, most hits filed as inhibitors; active = falling curve of any shape with a large fitted effect; inconclusive = falling curve, mostly with a smaller effect; inactive = flat or rising curve; cell line not stated here;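 also: intracellular cAMP measured with PDE inhibitor Ro 20-1724 present during compound exposure; potency is read from the fitted curve at half-maximal effect; % is scaled to controls: 0 for no effect and ±100 for the full control effect; nearly all actives have a fitted effect of over 65% in size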
#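 Measurement of cellular cAMP by homogeneous time-resolved fluorescence following a 30 min compound exposure at 37C. The PDE inhibitor […] was present throughout; the assay buffer was DPBS with 0.05% BSA and 0.005% Tween 20.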
# gsp ag = gsp mutant agonism. gsp mutant cells, cAMP HTRF, 30 min; control for the full effect not named in the record. Potency, µM (titrated, usually from 76.9 µM), for inactives: at the highest dose activation (cAMP increase), most hits filed as activators. 340,000 compounds, 0.13% hits; active = well fitted activation curve with a large enough effect; inconclusive = small, poorly fitted or top-dose-only effect, or another doubt; inactive = no such curve, though single readings can be large or run the other way; cell line not stated here;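 also: phosphodiesterase inhibitor Ro 20-1724 added with compounds to block cAMP breakdown; potency is read from the fitted curve at half-maximal effect; nearly all actives have a fitted effect of over 60% in size; about a fifth of the inactives were tested at one dose only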
#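 Cells in DMEM/10% FBS with G418 were pretreated with compounds in DMSO plus […] (300 uM stock) for 30 min at 37C. cAMP was measured by HTRF (cAMP-d2 plus anti-cAMP antibody-K) after 30 min at room temperature.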
# An asterisk follows results filed as active; ? = inconclusive; nt = not tested or not shown; & = joins results of further samples; [ ] = dose if it differs, or a comment.
SMILES,Sfp inh,TRPML1 blocker,Menin-MLL FL inh,TRPV1 PAM,ClpP mod,gsp antag,gsp ag
CCN1CCN(C(c2cc3cc4c(cc3[nH]c2=O)OCO4)c2nnnn2C(C)(C)CC)CC1 (stereo not drawn),-6%,-12,5.6,-1,-24%,0%,-9%
CN1CCN(S(=O)(=O)c2ccc(Oc3ccc(F)c(Cl)c3)nc2)CC1,-2%,-4,-1.1,-11,nt,-2%,-13%
CC1(C)CC(=O)C(C=NCCCN2CCOCC2)=C(O)C1,3%,-9,-0.8,-3,-0.7%,11%,15%
c1ccc(-n2ncc3c2ncn2c(C4CCCCC4)nnc32)cc1,30%,nt,2.1,5,nt,nt,nt
O=C1Nc2ccccc2C(O)(C(=O)NCc2ccc3c(c2)OCO3)N1c1ccccc1 (stereo not drawn),-8%,4,3.2,5,-0.9%,18%,17%
CCCCN(CCCC)C(=O)C1(P(=O)(c2ccccc2)c2ccccc2)CCC1,3%,6,4.0,-25,nt,-12%,-4%[15.4 µM]
O=C(CCC(=O)c1ccccc1)NC1CCCN(Cc2ccccc2F)C1 (stereo not drawn),19%,21,-1.7,29,nt,8%,-47%[inhibitor]
CC(C)c1ccc(N(CCc2ccccn2)C(=O)C(C)(C)C)cc1,nt,5,nt,nt,nt,-9%,-6%[15.4 µM]
Cc1ccc(C(=O)NCCc2nnc(SCC(=O)Nc3nc(-c4ccccc4)cs3)n2C)cc1,14%,6,4.6,-3,0.7%,5%,8%
COc1ccc(CC(C#N)(CO)c2nc3ccccc3[nH]2)cc1 (stereo not drawn),7%,-1,-1.9,-27,-11%,10%,0%
CC1(C)CC(=O)c2c(O)cc(OCC(=O)N3CCN(c4ccccc4)CC3)cc2O1,2%,nt,-3.3,-4,-12%,-13%,nt
COc1ccc(NC(=O)CCCC2CCCCC2)cc1S(=O)(=O)N1CCCCC1,21%,31,3.8,8,-8.0%,-1%,-18%
CCOC(=O)/C(C#N)=C\C1=C(N2CCCC2)CC(C)(CC)OC1 (stereo not drawn),8%,-6,0.7,-7,-11%,-14%,-10%
Cc1cnc(NC(=O)COc2ccccc2)s1,9%,-22,5.5,29,-2.5%,13%,13%
C[C@@H]1CN([C@@H](C)CO)S(=O)(=O)c2ccc(-c3cccc(C#N)c3)cc2O[C@@H]1CN(C)C(=O)c1ccc(F)cc1,nt,11,nt,nt,1.7%,nt,?
COc1ccccc1CNc1nc(C)c(C(=O)N(C)C)s1,45µM*,-8,1.1,1,nt,2%,18%
CCCC(C)C(=O)OCC(=O)NCc1ccc(OC)c(OC)c1 (stereo not drawn),20%,11,-3.0,-3,nt,12%,19%[15.4 µM]
O=C(C[n+]1cc(-c2ccc(F)cc2)n2c1CCC2)c1cccs1,18%,8,4.0,-6,nt,3%,11%[15.4 µM]
Cn1c(NC(=O)c2cccs2)cc(=O)n(C)c1=O,20%,3,-1.2,12,0.7%,4%,?
COc1cc(C(=O)NC2=NCCS2)cc(OC)c1OC,2%,-8,-0.5,3,-6.4%,10%,9%
Cc1ccc2nc(C(C)O)[nH]c2c1 (stereo not drawn),4%,-7,-0.3,-7,-0.7%,14%,-57%[inhibitor]
O=C(Nc1ccccc1)OCCNC(=O)c1ccccc1,-4%,-9,1.8,9,-0.4%,-1%,14%
CCOc1ccc(C(=O)NCC(=O)OCc2c(F)cccc2Cl)cc1OCC,-12%,-10,3.9,12,-26%,-26%,10%[15.4 µM]
CCCOc1ccc(/C=C/C(=O)N2CCN(c3ccccn3)CC2)cc1,-12%,14,0.0,-7,-0.8%,6%,0%[15.4 µM]
CC(C)CCN1CCN(Cc2cccc3nonc23)CC1CCO (stereo not drawn),19%,1,1.0,-2,1.3%,12%,-13%

# New compounds follow:
SMILES,Sfp inh,TRPML1 blocker,Menin-MLL FL inh,TRPV1 PAM,ClpP mod,gsp antag,gsp ag
O=C(N1CCN=C1SCc1cccnc1)C12CC3CC(CC(C3)C1)C2,7%,-6,-2.5,0,-0.9%,?,?
CCCCN(C(=O)c1oc2ccc(OCC)cc2c1C)c1c(N)n(CC(C)C)c(=O)[nH]c1=O,nt,3,nt,-2,-8.8%,-10%,24%
COc1cccc(NC(=O)Cn2c(=O)n(-c3ccccc3)c(=O)c3oc4ccccc4c32)c1,?,-5,2.7,-4,-7.0%,-16%,4%
CCN(CC)S(=O)(=O)c1ccc(C(=O)NC(=S)N2CCN(c3ccccc3O)CC2)cc1,nt,26,nt,nt,-3.4%,nt,1%
COc1cc(OC)cc(C(=O)NCC(=O)OCC(=O)N2c3ccccc3NC(=O)C2(C)C)c1,12%,8,0.3,-2,nt,2%,0%[15.4 µM]
CNC(=O)OCc1nc(SSC(C)(C)C)n(C)c1COC(=O)NC,nt,-20,nt,nt,1.8%,7%,-2%
CCC(C)[C@H](NC(=O)N1CC(=O)Nc2ccccc21)C(=O)N[C@H](Cc1ccccc1)C(=O)O (stereo partly drawn),11%,nt,0.3,-12,-1.4%,7%,nt
Cc1cccc(C)c1NC(=O)CSCC(=O)c1ccc(O)c(O)c1,?,4,-2.0,-3,1.4%,-12%,-10%
COc1ccc(Cc2nc(-c3ccc(-n4cccc4)cc3)no2)cc1,-13%,-29,0.8,2,?,-12%,1%
O=[N+]([O-])c1ccc(C2CNC(c3ccccc3)O2)cc1 (stereo not drawn),3%,16,1.8,-7,0.4%,7%,-21%
O=C(Cc1cccc2ccccc12)N/N=C/c1ccc(Sc2cccc3cccnc23)o1,-5%,nt,15,15,nt,nt,nt
C/C(=N\NC(=O)c1ccoc1C)c1ccccc1,9%,29,-0.6,-32,nt,-1%,5%[15.4 µM]
Cn1c(SCC(=O)NC2CCS(=O)(=O)C2)nc2ccccc21 (stereo not drawn),nt,1,nt,nt,-3.4%,8%,-7%
CN(CC(=O)Nc1ccccc1[N+](=O)[O-])Cc1ccc(Br)cc1,-8%,28,-2.4,6,nt,-5%,-5%[15.4 µM]
Cc1cc(=O)cc(C)n1-c1ccc(O)cc1,19%,-11,-2.2,7,nt,7%,-55%[inhibitor]
O=C(NCc1ccccc1)/C(=C/c1ccc(OC(F)F)cc1)c1ccccc1,-8%,1,4.1,-4,-6.4%,-23%,8%
CC(=O)OCc1ccccc1Sc1ccccc1C(=O)NCc1ccccc1,-1%,1,3.3,2,nt,6%,-4%[15.4 µM]
CS(=O)(=O)N1CCCC(C(=O)NCCCN2CCOCC2)C1 (stereo not drawn),14%,-1,0.9,-2,0.9%,7%,6%
Cc1csc(N/N=C/c2ccccc2F)n1,-19%,8,-0.4,-12,nt,-9%,-47%[inhibitor]
Cc1nc(=O)c(-c2ccccc2)c(C)n1CC1CCCO1 (stereo not drawn),4%,20,0.6,-25,-0.5%,-3%,3%
O=c1[nH]c(-c2ccccn2)nc2sc(-c3ccccc3)cc12,4µM*,5,1.3,-13,nt,nt,20%[15.4 µM]
O=C(NCCc1nnc2ccc(N3CCCC3)nn12)c1ccccc1,nt,14,nt,nt,-2.3%,4%,-4%[15.4 µM]
CCn1cc(C(=O)NCc2ccccn2)c(=O)c2cc(S(=O)(=O)N3CCCCC3)ccc21,10%,nt,?,-3,nt,nt,nt
CC(=O)N1CCC2(CC1)C(C#N)=C(N)Oc1c2sc2nc(C)cc(C)c12,-29%,0,6.7,-12,-0.8%,-7%,-4%
COc1ccccc1CNC(=O)C(=O)NCC1OCCCN1S(=O)(=O)c1cccs1 (stereo not drawn),6%,-1,-2.6,-15,2.8%,9%,-21%

# (listing goes on)
SMILES,Sfp inh,TRPML1 blocker,Menin-MLL FL inh,TRPV1 PAM,ClpP mod,gsp antag,gsp ag
CSc1cccc(NC(=O)c2ccc(NC3=NC4CS(=O)(=O)CC4S3)cc2)c1 (stereo not drawn),10%,8,6.3,-9,0.8%,8%,21%
O=C(c1ccco1)N1CCN(S(=O)(=O)N2CCOCC2)CC1,18%,13,2.4,3,0.4%,1%,-10%
COc1cc(CNc2ccc(N3CCN(C(C)=O)CC3)cc2)ccc1OCc1ccccc1,-27%,-16,-3.6,-9,nt,-9%,1%[15.4 µM]
O=C1Nc2ccccc2SC1c1ccccc1Cl (stereo not drawn),nt,-2,nt,nt,nt,3%,14%
N#CC(c1ccccn1)(c1ncc(C(F)(F)F)cc1Cl)N1CCOCC1 (stereo not drawn),7%,-8,6.6,nt,?,6%,17%
CCOC(=O)CC(=O)CSc1nc2ccccc2c(=O)n1-c1ccc(C(=O)NCCOC)cc1,21%,-18&24,5.1,0,-0.4%&-2.7%,4%,-45%[inhibitor]
COC(=O)CNC(=O)COC(=O)C(Cc1ccccc1)NC(=O)c1ccco1 (stereo not drawn),-3%,-1,2.1,?,-1.2%,-7%,0%
COc1ccc(CCNC(=O)c2cc3ccccc3oc2=O)cc1,11%,8,-0.5,22,-0.7%,9%,6%[15.4 µM]
COc1cc(C#Cc2c(-c3cncn3C)n(C)c3ccc(-c4ccc(OC)nc4)cc23)cc(OC)c1,nt,-8,nt,-7,4.3%,3%,nt
COc1cccc(NC(=O)CNCc2ccccc2)c1,-1%,13,-2.1,-8,-0.7%,-1%,-11%
COc1ccc(C2N(c3ccccc3)C(=S)N3CCCN23)cc1 (stereo not drawn),0%,19,-0.2,1,0.7%,?,-21%
CCCCSC(=O)Nc1ccccc1,23%,-10,1.4,-14,-2.3%,0%,-7%
CCc1nnc(SCC(=O)Nc2ccc3c(c2)OCO3)n1CC,14%,-22,nt,7,0.7%,-6%,15%[15.4 µM]
COc1ccc(C)cc1NC(=O)c1ccc2c(=O)n3c(nc2c1)CCCCC3,12%,13&13,nt,-13,-1.6%&-5.3%,-16%,13%
Cc1[nH]n(-c2nc(-c3ccccc3)cc(=O)[nH]2)c(=O)c1CCO,?,-1,-0.2,-12,nt,2%,-11%[15.4 µM]
CNC(=O)N(O)C1N(/N=C/c2ccc(C)cc2)C(=S)SC1(C)C (stereo not drawn),-7%,-4,0.2,-6,-1.1%,4%,6%
